Ba CapD inh: CapD enzyme inhibition | z-score (test concentration not listed) | hit rate 0.23% among 140,000 | purified CapD enzyme, fluorescence intensity read-out; active compounds read low; some hits fall short of the stated cut | AID 492967;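 active means z-score under -4 in either of two replicates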;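 further: stock transfer was 100 nL into about 40 µL; score is relative to mean and spread of the plate; one replicate is shown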
AID504770: E. coli YBA685 growth inhibition, screen for V. cholerae RctB inhibitors | E. coli YBA685 rctB-dependent plasmid, OD600 growth, 3 h; active compounds read low | z-score (test concentration not listed) | hit rate 0.27% among 130,000 | AID 504770;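 active means z-score under -2 on both plates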;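 further: wells of about 30 µL received 100 nL stock; score is relative to mean and SD of the test wells; the first replicate is given; strong numbers were not always called active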
* = called active by the depositor; . = not tested or not shown; & = joins results of further samples. Only part of the results is shown. The share of hits here may be higher or lower than overall.

SMILES | Ba CapD inh | AID504770
Cc1ccc(SC(=O)N/C=C/c2ccsc2)cc1 | 0.25 | -0.15
CC(Nc1ncnc2c1oc1ccccc12)C12CC3CC(CC(C3)C1)C2 (centres undefined) | . | -0.35
COc1ccc(CC(=O)n2[nH]c(=O)ccc2=O)cc1OC | 0.26 | -0.75
COc1ccc(Cl)cc1N(CC(=O)N1CCN(Cc2ccccc2)CC1)S(C)(=O)=O | -0.11 | 0.95
CCOC(=O)C1=C(C)NC(C)=C(C(=O)OCC)C1c1cn(-c2ccccc2)nc1-c1ccc(OC)cc1 | 5.8 | .
CCCCCOC1OC(COC(C)=O)C(OC(C)=O)C(OC(C)=O)C1NC(C)=O (centres undefined) | 0.22 | .
O=S(=O)(c1cccs1)N1CCN(CCc2ccccc2)CC1 | 0.3 | -1.1
Cc1cc(C)c2nc(NC(=O)C(C)C)sc2c1 | 0.51 | -0.25
Cc1ccsc1C1c2c(C)nn(-c3ccccc3)c2N=C(c2ccccc2O)C1C(=O)O (centres undefined) | . | 0.95
CCN1CC(NC(=O)c2ccc(-c3ccccn3)s2)CN1CC | 4.4 | .
CCc1ccccc1NC(=O)CSC1=C(C#N)C(c2ccccc2Cl)C(C(=O)OC)=C(C)N1 (centres undefined) | 0.71 | .
Oc1c(I)cc2oc3c(c2c1CNc1ccc(Br)cc1)CCCC3 | -0.59 | .
Cc1ccc(/C=N/NC(=O)c2sc3nc(C)cc(C)c3c2-n2cccc2)cc1 | 0.15 | .
CN(C)c1ccc(/C=C/c2ccncc2)cc1 | -0.17 | 1.2
CN(C)C(=O)c1cc(Br)cc2c1OCC2 | 0.17 | 0.85
COC(=O)C(NC(=O)C12CC3(C)CC(C)(CC(C)(C3)C1)C2)C(C)C (centres undefined) | . | 0.2
CCN(CC)S(=O)(=O)c1cc(C)ccc1OC | 0.36 | -0.85
Cc1ccc(S(=O)(=O)NC(=O)N(Cc2cc3cccc4c3n(c2=O)CCC4)c2cccc(C(F)(F)F)c2)cc1 | -0.23 | .
COc1ccc(NC(=O)CC2C(=O)N(Cc3ccco3)C(=S)N2CCCN2CCN(c3ccc(F)cc3)CC2)cc1 (centres undefined) | 0.37 | 0.4
CCc1ccc2c(c1)C1CC(C)(O2)N(CC)C(=S)N1 (centres undefined) | 0.4 | -1.2
OCCCc1cc(-c2ccccc2)n[nH]1 | -0.11 | -0.75
O=C(O)Cc1csc(-c2ccsc2)n1 | . | 0
O=C1CN(C(=O)c2cc3ccccc3oc2=O)c2ccccc2N1 | -0.12 | 0.9
Cc1ccc(-c2noc(CCC(=O)NC3CCCC(C)C3C)n2)cc1 (centres undefined) | -0.62 | -0.05
O=C(COC(=O)c1cccc(C(=O)OCC(=O)NC2CC2)n1)NC1CC1 | . | 0.35
Cc1ccc2c(c1)-c1c(ssc1=S)C(C)(C)N2C(=O)C(C)C | -1.3 | 0.15
CC1C=CCC2C(=O)N(c3ccc4c(c3)CCC4)C(=O)C12 (centres undefined) | -0.96 | 0.35
O=C1NC(=O)C(C(CC(=O)C2CC2)c2ccccc2)C(=O)N1 (centres undefined) | 0.1 | 0.55
NC(CC(=O)O)c1cccc(Oc2ccccc2)c1 (centres undefined) | -0.37 | -0.35
Cc1ccc(-c2csc(NC(=O)CC3CCCC3)n2)o1 | . | -0.55
O=C(NCc1ccc2c(c1)OCO2)C1CC(=O)N(CCc2ccc(Cl)cc2)C1 (centres undefined) | 0.39 | 0.95
CN(C)S(=O)(=O)c1ccc(C(=O)Oc2ccc(-n3ccnc3)cc2)cc1 | . | -0.3
Cc1ccc(NCc2nc3ccccc3s2)cc1 | . | 1.3
CC(C)(C)S(=O)(=O)Cc1nc(-c2ccc(C(F)(F)F)cc2)cs1 | 0.54 | 0.1
CN1C(=O)c2cccc3c(Cl)cc(Cl)c1c23 | . | 0
Cc1ccc(NC(=O)CSc2nc3ccccc3[nH]2)cc1NC(=O)CSc1nc2ccccc2[nH]1 | 0.35 | .
CC(C)(C)NC(=O)CN1CCN(c2nc(-c3ccc(Cl)cc3)cs2)CC1 | . | 0.25
CC(C)c1ccc(/C=C2\Sc3ccccc3NC2=O)cc1 | -0.67 | 0.25
Cc1ccc(CN2CCS(=O)(=O)CC2)o1 | 0.77 | 0
CC(Oc1ccc2c(-c3ccccc3)cc(=O)oc2c1)C(=O)N1CCOCC1 (centres undefined) | . | 0.1
CCN(CC)c1ccc2cc(-c3nnc(Nc4cc(F)ccc4C)s3)c(=O)oc2c1 | 0.56 | .
Cc1ccc([N+](=O)[O-])cc1S(=O)(=O)n1c(SCC(=O)c2ccc(Cl)cc2)nc2ccccc21 | 0.16 | .
COc1ccc(CN2CCC(N(C)Cc3ccccc3)CC2)cc1 | -0.15 | -1.1
CC(C)c1ccc(S(=O)(=O)CC#N)cc1 | -1 | -0.95
CC(=O)N1CCc2cc(-c3csc(N)n3)ccc21 | . | -0.35
CC(=O)Oc1cncc(C(=O)O)c1 | -0.68 | 0.3
CC1CCN(C(=O)C2CCN(c3ncc(-c4ccc(Cl)cc4)cn3)CC2)CC1 | 0.8 | .
Nc1nnc(SCC(=O)OCC(=O)Nc2nc(-c3ccccc3)cs2)s1 | . | -0.85
COc1ccc(NC(=O)NC(C)c2c(-n3cccc3)sc3c2CCCC3)cc1 (centres undefined) | -0.33 | 1
CC(OC(=O)C1CCCO1)C(=O)NC1CCCC1 (centres undefined) | . | 0.25
CCc1ccc(C2CC(=O)Nc3c2cc(Br)c2ccccc32)cc1 (centres undefined) | -0.16 | .
O=c1c2sc(=S)n(Cc3ccco3)c2nc(SCc2cc(=O)n3ccccc3n2)n1-c1ccc(F)cc1 | 0.51 | .
O=C(Nc1nc2c(s1)CCCC2)C1CCCCC1 | . | -0.1
FC(c1nc2ccccc2[nH]1)C(F)(F)F (centres undefined) | . | -0.6
O=C(NCc1ccc(Cl)cc1)c1cc2c(s1)CSC2 | -2 | 0.5
CNCCCC12CCC(c3ccccc31)c1ccccc12 | 0.065&0.045 | 0.25
COC(=O)c1ccc(N2C(=O)C3ON(c4ccccc4C)C(c4ccc(F)cc4)C3C2=O)cc1 (centres undefined) | -0.3 | -0.2
Cc1ccc(-n2cccc2)cc1 | 0.02 | .
COc1cc2c(c([N+](=O)[O-])c1)OC1(C=C2)N(c2ccccc2)c2ccccc2C1(C)C (centres undefined) | -0.62 | .
CN(Cc1cccs1)CC(O)COCc1ccco1 (centres undefined) | . | 0.8
Next part
SMILES | Ba CapD inh | AID504770
Cc1cc2cc(CNC(=O)C(C)C)ccc2n1C | -0.47 | 0
CC(C)Oc1cccc(NC(=O)c2ccccc2C(F)(F)F)c1 | -0.52 | .
Clc1cccc(Cc2cn3cc(-c4ccccc4)nc3s2)c1 | -0.76 | 0.2
CC(=O)NC12CC3CC(C1)CC(C(=O)OC(C)C(=O)Nc1ccccc1C#N)(C3)C2 (centres undefined) | . | -0.85
COC(=O)C1=C(C)OC(N)=C(C#N)C1c1cc2ccc(C)cc2[nH]c1=O (centres undefined) | . | -0.8
NC(=S)N1N=C(c2cccs2)CC1c1ccco1 (centres undefined) | . | -0.4
CCC1C/C(=C\c2ccc(OC)cc2)C(=O)/C(=C/c2ccc(OC)cc2)C1 (centres undefined) | 0.17 | .
C=COC(=O)CSc1nc(-c2cccs2)ccc1C#N | 112 | 0.35
Cc1cnc(NC(=O)C2CCC(C(C)(C)C)CC2)s1 (centres undefined) | . | -0.85
Cc1[nH]c(-c2ccc(F)cc2)cc1C(=O)N1CCN(c2ccccc2F)CC1 | -1.3 | 0.75
[O-]/[N+](Cc1ccccc1F)=N\O | . | 0.05
CC(C)N1C(=O)/C(=C\c2cccc3ccccc23)SC1=S | -0.94 | 0.1
Cc1ccc(-n2nc3ccc(NC(=O)C(C)C)cc3n2)cc1 | 67 | 0.1
CC(C)NC(=O)CCc1nc(-c2ccc(C(C)(C)C)cc2)no1 | -0.12 | -0.9
CCc1ccc(NC(=O)CN(C)S(=O)(=O)c2ccc3[nH]c(=O)oc3c2)cc1 | 0.01 | 0.3
CCOC(=O)c1ccccc1N/C=C/C(=O)C(C)(C)C | -0.37 | -0.25
C=CCn1c(C)cc(C(=O)Cn2c(C(C)O)nc3ccccc32)c1C (centres undefined) | . | 1.7
Cc1ccccc1OCc1nnc(SCC(=O)O)n1CCc1ccccc1 | . | -1.1
CCCCNc1nc2ccccc2[nH]1 | . | -0.35
CCCCN=C1SCC(c2cc(C)n(Cc3ccco3)c2C)=NN1C | . | -0.25
Clc1ccc(CN2CCN(Cc3ccc(Cl)cc3)C2c2c(Cl)cccc2Cl)cc1 | -0.18 | .
CCn1c(=O)c2c(n3c(SCC(N)=O)nnc13)-c1ccccc1CC21CCCCC1 | -0.8 | 0
CCCCOc1ccc(NC(=O)CSC2=C(C#N)C(c3ccccc3)C(C(=O)Nc3ccccc3)=C(C)N2)cc1 (centres undefined) | -0.69 | .
O=C(NCc1cccs1)c1cccs1 | 0.32 | .
CN(Cc1ccccc1)C(=O)c1ccc(-n2ccc3ccccc32)s1 | 32 | -2.7
Fc1cccc(Cl)c1CSc1ncn[nH]1 | 0.61 | -0.15
CCOC(=O)c1[nH]c(CN2CCc3ccccc3C2)c(C(=O)OCC)c1C | . | 0.1
O=C1CCC(C(=O)OCC(=O)N2CCOCC2)=NN1 | . | -0.7
C=CCn1c(-c2nonc2NC(=O)CC)nc2ccccc21 | -1.5 | -0.55
CCCCc1ccc(NC(=O)CSc2nc(-c3ccccc3)c(-c3ccccc3)o2)c(C)c1 | -0.16 | .

Part of the list above in another layout:
Second line of a record: Ba CapD inh, AID504770
> Cc1ccc(-n2nc3ccc(NC(=O)C(C)C)cc3n2)cc1
    67, 0.1
> CC(C)NC(=O)CCc1nc(-c2ccc(C(C)(C)C)cc2)no1
    -0.12, -0.9
> CCc1ccc(NC(=O)CN(C)S(=O)(=O)c2ccc3[nH]c(=O)oc3c2)cc1
    0.01, 0.3
> CCOC(=O)c1ccccc1N/C=C/C(=O)C(C)(C)C
    -0.37, -0.25
> C=CCn1c(C)cc(C(=O)Cn2c(C(C)O)nc3ccccc32)c1C (centres undefined)
    ., 1.7
> Cc1ccccc1OCc1nnc(SCC(=O)O)n1CCc1ccccc1
    ., -1.1
> CCCCNc1nc2ccccc2[nH]1
    ., -0.35
> CCCCN=C1SCC(c2cc(C)n(Cc3ccco3)c2C)=NN1C
    ., -0.25
> Clc1ccc(CN2CCN(Cc3ccc(Cl)cc3)C2c2c(Cl)cccc2Cl)cc1
    -0.18, .
> CCn1c(=O)c2c(n3c(SCC(N)=O)nnc13)-c1ccccc1CC21CCCCC1
    -0.8, 0
> CCCCOc1ccc(NC(=O)CSC2=C(C#N)C(c3ccccc3)C(C(=O)Nc3ccccc3)=C(C)N2)cc1 (centres undefined)
    -0.69, .
> O=C(NCc1cccs1)c1cccs1
    0.32, .
> CN(Cc1ccccc1)C(=O)c1ccc(-n2ccc3ccccc32)s1
    32, -2.7
> Fc1cccc(Cl)c1CSc1ncn[nH]1
    0.61, -0.15
> CCOC(=O)c1[nH]c(CN2CCc3ccccc3C2)c(C(=O)OCC)c1C
    ., 0.1
> O=C1CCC(C(=O)OCC(=O)N2CCOCC2)=NN1
    ., -0.7
> C=CCn1c(-c2nonc2NC(=O)CC)nc2ccccc21
    -1.5, -0.55

Additional records:
SMILES | Ba CapD inh | AID504770
CCOc1ccc2nc(SCCC(=O)Nc3ccccc3)sc2c1 | -0.46 | -1.1
NC(=O)CC1=NC(=O)CS1 | -0.3 | -0.7
O=C(/C=C/c1ccc(Br)o1)OCC(=O)N1CCCC1=O | . | 0.8
O=c1c(Cl)c(Cl)cnn1-c1nc2ccccc2[nH]1 | . | -0.15
O=S(=O)(c1ccc(C2CCCCC2)cc1)N1CCCC1 | 0.04 | -0.65
NC(=S)Cc1nnc(N2CCOCC2)n1-c1ccccc1 | . | -0.35
c1ccc2c(c1)NCCCS2 | . | -0.55
Cc1ccc(SC(C)C(=O)NCC(C)C)cc1 (centres undefined) | -0.045 | -1
OC1CCN(c2cc(C(F)(F)F)nc3cc(Cl)cc(Cl)c23)CC1 | -0.98 | -1.4
CCN1N=C(c2ccccc2)CCC1=O | 0.32 | 0
CCn1cc(C=C2C(=O)NC(=O)NC2=O)c2ccccc21 | -0.89 | 0.3
Cc1sc2nc(C)n(/N=C/N(C)C)c(=O)c2c1C | . | 0.6
COc1ccc(-n2c(=O)[nH]cc(C(=O)N3CCCc4ccccc43)c2=O)cc1 | . | 1.2
COC(=O)C1=C(C)N(CC2CCCO2)C(=O)/C1=C\c1cc(C)n(-c2ccc(OC)c(Cl)c2)c1C (centres undefined) | 0.15 | 1.8
CCOc1ncnc2ccc(Br)cc12 | 0.23 | -0.85
Cc1cc(-n2c(C)cc(C(=O)CN3C(=O)NC4(CCCCCC4)C3=O)c2C)no1 | . | -0.05
CCN(CC)C(=S)SCc1cn2cccnc2n1 | -0.005 | -0.35
CCc1ccc(NC(=O)c2cc(S(=O)(=O)N3CCCCC3)ccc2F)cc1 | 0.71 | -0.25
CC(=O)NC1C(=O)N(C)c2c(C)cc(C)cc21 (centres undefined) | -0.32 | -0.2
O=C(NCCc1ccccn1)C1COc2ccccc2O1 (centres undefined) | 0.065 | 1.2
Fc1ccc(N(Cc2ccc3c(c2)OCO3)C(=S)Nc2ccc(Cl)c(Cl)c2)cc1 | -0.07 | .
CCCCOc1ccc(-c2nc(C=Nc3ccc(OC)c(Cl)c3)c(O)o2)cc1 | 0.37 | .
Cc1c(Cl)c(C)c(C2=NON3N(C(=O)c4ccccc4)c4ccccc4N23)c(C)c1Cl | -0.59 | .
C=CCN(CC=C)Cc1nc(N)nc(Nc2ccccc2C)n1 | . | -0.35
COc1ccc(C2Nn3c(C)nnc3SC2C(=O)N2CCCC2)cc1 (centres undefined) | -0.095 | 0.3
NC(=O)CP(=O)(c1ccccc1)c1ccccc1 | 0.36 | 0.9
COc1ccc(CCNC(C#N)c2ccco2)cc1OC (centres undefined) | 0.82 | -0.3
N#C/C(=C/c1cn(-c2ccccc2)nc1-c1cc2ccccc2o1)S(=O)(=O)c1ccccc1 | -0.09 | -0.2
